Screens (PubChem)
Yeast_UUG_start = modulators of yeast start codon fidelity, primary screen, whole organism, S. cerevisiae, single point, plate reader; S. cerevisiae UUG-firefly luciferase reporter, luminescence/redox ratio; activity score, % at 18.7 µM; hit rate 0.13% among 350,000; AID 602363, 2012;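 active means replicate mean at a twofold rise or more, about +100% in these data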;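 further: firefly luciferase made from a UUG start codon reports start codon fidelity; reporter light over untreated wells divided by growth signal over untreated wells; some hits fall short of that in this replicate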
HIV_Env_fusion = inhibitors of HIV-1 Env-driven cell-cell fusion, primary screen, HeLa-JRFL effector, CEM21 target cells, luciferase; inhibition, % at 12.3 µM; hit rate 1.1% among 360,000; AID 651610, 2012;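 active means mean replicate inhibition score of at least 50 and every replicate individually at or above 50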;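 further: 0% = plate neutral controls and 100% = maraviroc near 300 nM; one replicate is shown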
* hit, by the source's call; & = joins results of further samples; [ ] = another dose, or the depositor's remark. An excerpt, so the mix of outcomes need not match the whole.

Preview (two entries):
SMILES Yeast_UUG_start HIV_Env_fusion
COc1ccccc1-c1cnc2c(c1)C(=O)N([C@@H](C)CO)C[C@H](C)[C@@H](CN(C)Cc1ccc(F)cc1)O2 -23 17[16.7_µM]
COc1ccccc1-c1cnc2c(c1)C(=O)N([C@H](C)CO)C[C@H](C)[C@H](CN(C)Cc1ccccc1)O2 18 -10[16.7_µM]

Results, repeating the preview:
SMILES Yeast_UUG_start HIV_Env_fusion
COc1ccccc1-c1cnc2c(c1)C(=O)N([C@@H](C)CO)C[C@H](C)[C@@H](CN(C)Cc1ccc(F)cc1)O2 -23 17[16.7_µM]
COc1ccccc1-c1cnc2c(c1)C(=O)N([C@H](C)CO)C[C@H](C)[C@H](CN(C)Cc1ccccc1)O2 18 -10[16.7_µM]
Cc1ccc(S(=O)(=O)N[C@@H]2CC[C@@H](CCn3cc(C4(O)CCCC4)nn3)O[C@@H]2CO)cc1 -6 -12[16.7_µM]
COc1ccccc1C#Cc1ccc([C@@H]2[C@H](C#N)N(C(=O)C3CCC3)[C@H]2CO)cc1 -7 4[16.7_µM]
C[C@H]1CCCCO[C@H](CN(C)Cc2ccc(C(F)(F)F)cc2)[C@@H](C)CN([C@@H](C)CO)C(=O)c2cc(N(C)C)ccc2O1 5 29[16.7_µM]
C[C@@H]1CCCCO[C@H](CN(C)C(=O)CCC(F)(F)F)[C@@H](C)CN([C@H](C)CO)C(=O)c2cc(NS(=O)(=O)c3cn(C)cn3)ccc2O1 -14 4[16.7_µM]
O=S(=O)(N[C@H]1CC[C@H](CCn2cc(-c3ccc(F)cc3)nn2)O[C@H]1CO)c1ccccc1F 25 11[16.7_µM]
O=C(C[C@H]1CC[C@@H]2[C@H](COC[C@@H](O)CN2CCc2ccccc2)O1)NCc1ccccc1 -12 0[16.7_µM]
C[C@@H]1CN([C@@H](C)CO)C(=O)c2cc(C3=CCCC3)cnc2O[C@@H]1CN(C)C(=O)Nc1ccccc1 13 8[16.7_µM]
O=C(C[C@@H]1C=C[C@H](NC(=O)C2CCC2)[C@H](CO)O1)NCC1CC1 -5 -4[16.7_µM]

Random excerpt: 2 entries already listed
SMILES Yeast_UUG_start HIV_Env_fusion
COc1ccccc1C#Cc1ccc([C@@H]2[C@H](C#N)N(C(=O)C3CCC3)[C@H]2CO)cc1 -7 4[16.7_µM]
C[C@H]1CCCCO[C@H](CN(C)Cc2ccc(C(F)(F)F)cc2)[C@@H](C)CN([C@@H](C)CO)C(=O)c2cc(N(C)C)ccc2O1 5 29[16.7_µM]

Continuation:
SMILES Yeast_UUG_start HIV_Env_fusion
C[C@H](CO)N1C[C@H](C)[C@@H](CN(C)C(=O)NC2CCCC2)Oc2ncc(-c3ccncc3)cc2C1=O 3 -15[16.7_µM]
CC(C)NC(=O)N(C)C[C@@H]1Oc2ccc(N(C)C)cc2C(=O)N([C@H](C)CO)C[C@H]1C -11 -22[16.7_µM]
CNC[C@@H]1OCCCC[C@H](C)Oc2ccc(N)cc2C(=O)N([C@@H](C)CO)C[C@H]1C 5 -12[16.7_µM]
CC(=O)N(C)C[C@H]1Oc2ncc(-c3ccccc3C)cc2C(=O)N([C@H](C)CO)C[C@H]1C -13 -5[16.7_µM]
COc1ccc(S(=O)(=O)Nc2cccc3c2O[C@@H](CN(C)Cc2ccc4c(c2)OCO4)[C@@H](C)CN([C@H](C)CO)C3=O)cc1 4 -1[16.7_µM]
C[C@@H]1CN([C@@H](C)CO)S(=O)(=O)c2ccc(-c3cncnc3)cc2O[C@H]1CN(C)C(=O)NC1CCCC1 -7 -25[16.7_µM]
CC(C)NC(=O)N[C@@H]1CC[C@H](CCNC(=O)C2CCOCC2)O[C@H]1CO -21 3[16.7_µM]
Cc1ccc(S(=O)(=O)Nc2ccc3c(c2)C(=O)N([C@H](C)CO)C[C@@H](C)[C@H](CN(C)C)OCCCC[C@H](C)O3)cc1 3 -2[16.7_µM]
CNC[C@@H]1Oc2c(NC(=O)c3cnccn3)cccc2C(=O)N([C@@H](C)CO)C[C@H]1C -18 -2[16.7_µM]
C[C@@H]1CN([C@@H](C)CO)C(=O)c2cc(NC(=O)Nc3ccccc3)ccc2O[C@@H](C)CCCCO[C@H]1CN(C)S(=O)(=O)c1cccs1 -11 13[16.7_µM]
C[C@@H]1CN([C@@H](C)CO)C(=O)c2cccc(NC(=O)c3ccncc3)c2O[C@@H]1CN(C)Cc1ccccc1 -13 -5[16.7_µM]
CCc1csc(N2[C@H](C#N)[C@H](c3ccc(C#Cc4ccc(F)cc4)cc3)[C@H]2CO)n1 -8 14[16.7_µM]
C[C@@H]1CN([C@H](C)CO)C(=O)c2cc(NS(=O)(=O)c3ccc(F)cc3)ccc2O[C@@H](C)CCCCO[C@@H]1CN(C)S(=O)(=O)c1cccs1 -1 -27[16.7_µM]
C[C@H]1CN([C@@H](C)CO)C(=O)Cc2cc(NC(=O)Cc3ccccc3)ccc2O[C@H]1CN(C)CC1CCCCC1 15 2[16.7_µM]
CO[C@H]1CN(C)C(=O)c2cc(NC(=O)Nc3cccc(F)c3)ccc2OC[C@@H](C)N(C(C)=O)C[C@@H]1C 14 -3[16.7_µM]
Cc1ccc(S(=O)(=O)N[C@H]2CC[C@@H](CCn3cc(-c4cccc(F)c4)nn3)O[C@H]2CO)cc1 -5 0[16.7_µM]
O=C(Nc1ccc(C(F)(F)F)cc1)N[C@@H]1CC[C@H](CCNC(=O)c2ccccc2F)O[C@@H]1CO 4 -2[16.7_µM]
Cc1noc(C)c1NC(=O)N(C)C[C@H]1Oc2ccc(NS(=O)(=O)c3ccccc3)cc2CC(=O)N([C@H](C)CO)C[C@H]1C 0 -13[16.7_µM]
C[C@@H]1CN([C@H](C)CO)S(=O)(=O)c2ccc(C3=CCCCC3)cc2O[C@H]1CN(C)Cc1ccncc1 -13 37[16.7_µM]
C[C@H]1CN([C@@H](C)CO)C(=O)c2cc(NS(=O)(=O)c3cccs3)ccc2O[C@@H]1CN(C)Cc1ccccc1 -15 -1[16.7_µM]
C[C@@H]1CN([C@@H](C)CO)C(=O)Cc2cc(NS(C)(=O)=O)ccc2O[C@@H]1CN(C)S(=O)(=O)c1cn(C)cn1 -1 -1[16.7_µM]
C[C@H](CO)N1C[C@H](C)[C@@H](CN(C)S(=O)(=O)c2ccccc2)Oc2ccc(NC(=O)Nc3ccc(F)cc3)cc2CC1=O -2 -11[16.7_µM]
COc1ccc(S(=O)(=O)N(C)C[C@@H]2Oc3ncc(-c4ccncc4)cc3C(=O)N([C@H](C)CO)C[C@@H]2C)cc1 36 12[16.7_µM]
C[C@H]1CN([C@@H](C)CO)C(=O)c2cc(C#Cc3cccc(F)c3)cnc2O[C@@H]1CN(C)C(=O)C1CCOCC1 -13 4[16.7_µM]
Cc1ccc(S(=O)(=O)Nc2ccc3c(c2)C(=O)N([C@H](C)CO)C[C@H](C)[C@H](CN(C)S(=O)(=O)c2cccs2)OCCCC[C@@H](C)O3)cc1 -5 7[16.7_µM]
O=C(C[C@H]1C[C@@H]2c3cc(NC(=O)C4CCOCC4)ccc3O[C@@H]2[C@@H](CO)O1)NCc1ccccn1 -6 -7[16.7_µM]
COc1ccc(NC(=O)N(C)C[C@@H]2OCCCC[C@H](C)Oc3ccc(NC(=O)Nc4ccc(C(F)(F)F)cc4)cc3C(=O)N([C@@H](C)CO)C[C@H]2C)cc1 -8 33[16.7_µM]
Cc1noc(C)c1S(=O)(=O)Nc1ccc2c(c1)C(=O)N([C@@H](C)CO)C[C@H](C)[C@H](CN(C)C(=O)Nc1ccc3c(c1)OCO3)OCCCC[C@H](C)O2 0 -115[16.7_µM]
C[C@@H]1CN([C@H](C)CO)C(=O)c2cc(NS(C)(=O)=O)ccc2O[C@@H](C)CCCCO[C@H]1CN(C)S(=O)(=O)c1ccc(Cl)cc1 10 6[16.7_µM]
O=C(NCC[C@@H]1CC[C@H](NS(=O)(=O)c2ccccc2)[C@@H](CO)O1)c1ccccc1F 10 2[16.7_µM]

Three entries already listed, sorted by molar mass, lowest first.
SMILES Yeast_UUG_start HIV_Env_fusion
CCc1csc(N2[C@H](C#N)[C@H](c3ccc(C#Cc4ccc(F)cc4)cc3)[C@H]2CO)n1 -8 14[16.7_µM]
C[C@@H]1CN([C@H](C)CO)C(=O)c2cc(NS(=O)(=O)c3ccc(F)cc3)ccc2O[C@@H](C)CCCCO[C@@H]1CN(C)S(=O)(=O)c1cccs1 -1 -27[16.7_µM]
COc1ccc(NC(=O)N(C)C[C@@H]2OCCCC[C@H](C)Oc3ccc(NC(=O)Nc4ccc(C(F)(F)F)cc4)cc3C(=O)N([C@@H](C)CO)C[C@H]2C)cc1 -8 33[16.7_µM]

Following part
SMILES Yeast_UUG_start HIV_Env_fusion
COc1ccc(-c2cnc3c(c2)C(=O)N([C@H](C)CO)C[C@H](C)[C@H](CN(C)S(C)(=O)=O)O3)cc1 8&10 -16&-30[16.7_µM]
CO[C@@H]1CN(C)C(=O)c2cc(NC(=O)Nc3ccccc3F)ccc2OC[C@@H](C)N(C(=O)Nc2ccccc2F)C[C@H]1C 15 -37[16.7_µM]
CO[C@H]1CN(C)C(=O)c2ccc(NC(=O)c3ccc(F)cc3)cc2OC[C@@H](C)N(C(=O)c2ccc(F)cc2)C[C@@H]1C 4 -9[16.7_µM]
CO[C@@H]1CN(C)C(=O)c2ccc(NS(C)(=O)=O)cc2OC[C@H](C)N(C(=O)NC(C)C)C[C@@H]1C -11 10[16.7_µM]
C=CCNC(=O)[C@H]1[C@@H]2C(=O)O[C@@H](c3ccccc3)[C@@H](c3ccccc3)N2[C@@H](c2ccc(O)cc2)[C@]12C(=O)Nc1ccc(C#Cc3ccc(OC)cc3)cc12 6 -8[16.7_µM]
C[C@H]1CCCCO[C@H](CN(C)S(=O)(=O)c2ccc(F)cc2)[C@@H](C)CN([C@@H](C)CO)C(=O)c2cc(NC(=O)Nc3ccc4c(c3)OCO4)ccc2O1 -2 3[16.7_µM]
CCC(=O)N(C)C[C@H]1Oc2ncc(C#CC(C)C)cc2C(=O)N([C@@H](C)CO)C[C@H]1C 16 -1[16.7_µM]
CC(=O)Nc1ccc2c(c1)C(=O)N(C)[C@H]1CC[C@H](CC(=O)Nc3ccc(C)cc3)O[C@@H]1CO2 2 18[16.7_µM]
O=C(C[C@H]1C[C@H]2c3cc(NC(=O)c4cccnc4)ccc3O[C@H]2[C@H](CO)O1)NCC1CC1 3 5[16.7_µM]
O=C(CC1CC1)Nc1ccc2c(c1)[C@@H]1C[C@H](CC(=O)NC3CCCC3)O[C@H](CO)[C@@H]1O2 -6 -32[16.7_µM]
CC(=O)N(C)C[C@@H]1Oc2ncc(-c3cccc(C#N)c3)cc2C(=O)N([C@H](C)CO)C[C@H]1C -3 3[16.7_µM]
C[C@H](CO)N1C[C@H](C)[C@@H](CN(C)Cc2ccc(C(=O)Nc3ccccc3N)cc2)Oc2ccc(NS(=O)(=O)c3cccs3)cc2CC1=O -3 4[16.7_µM]
C[C@H](CO)N1C[C@H](C)[C@@H](CN(C)Cc2ccc(-c3ccccc3)cc2)Oc2ccc(NC(=O)Nc3ccc(F)cc3)cc2C1=O -9 -7[16.7_µM]
C[C@@H]1CN([C@H](C)CO)C(=O)c2cccc(NS(=O)(=O)c3cccs3)c2O[C@H]1CN(C)Cc1ccc(Cl)c(Cl)c1 13 -24[16.7_µM]
COc1ccc(S(=O)(=O)Nc2ccc3c(c2)C(=O)N([C@@H](C)CO)C[C@@H](C)[C@@H](CN(C)Cc2ccncc2)OCCCC[C@@H](C)O3)cc1 14 -4[16.7_µM]
C[C@H]1CN([C@@H](C)CO)C(=O)c2cccc(NC(=O)Nc3ccc(F)cc3)c2O[C@H]1CN(C)CC1CCCCC1 9 -21[16.7_µM]
COc1ccc(NC(=O)N(C)C[C@@H]2Oc3ccc(NS(=O)(=O)c4ccc(Cl)cc4)cc3C(=O)N([C@H](C)CO)C[C@@H]2C)cc1 18 15[16.7_µM]
O=C(Cc1ccccc1)N[C@H]1CC[C@@H](CC(=O)N2CCCCC2)O[C@H]1CO -14 -16[16.7_µM]
O=C(C[C@@H]1C[C@@H]2c3cc(NC(=O)Nc4ccc(C(F)(F)F)cc4)ccc3O[C@@H]2[C@@H](CO)O1)NCC1CC1 1 0[16.7_µM]
C[C@@H]1CN([C@H](C)CO)S(=O)(=O)c2ccc(-c3cccnc3)cc2O[C@H]1CN(C)C(=O)C1CCCCC1 -1 20[16.7_µM]
O=C(NCC[C@H]1CC[C@@H](NS(=O)(=O)c2cccc(F)c2)[C@H](CO)O1)Nc1cc(F)ccc1F -5 10[16.7_µM]
C[C@@H]1CN([C@H](C)CO)C(=O)Cc2cc(NC(=O)Nc3ccc(F)cc3)ccc2O[C@@H]1CN(C)C(=O)Nc1ccc2c(c1)OCO2 -9 8[16.7_µM]
COc1ccc(-c2ccc([C@H]3[C@@H](C#N)N(C(=O)C4CC4)[C@H]3CO)cc2)cc1 11 7[16.7_µM]
C[C@H](CO)N1C[C@H](C)[C@@H](CN(C)Cc2ccc(Cl)c(Cl)c2)Oc2c(NC(=O)Nc3ccc(C(F)(F)F)cc3)cccc2C1=O -12 9[16.7_µM]
CCCN(C)C[C@H]1Oc2cc(C#CC3(O)CCCC3)ccc2S(=O)(=O)N([C@@H](C)CO)C[C@H]1C 7 -18[16.7_µM]
COc1ccc(CN(C)C[C@H]2OCCCC[C@H](C)Oc3ccc(NC(=O)c4ccncc4)cc3C(=O)N([C@H](C)CO)C[C@@H]2C)cc1 27 15[16.7_µM]
C[C@H]1CN([C@@H](C)CO)C(=O)Cc2cc(NS(=O)(=O)c3ccccc3)ccc2O[C@H]1CN(C)C(=O)Nc1ccccc1 1 5[16.7_µM]
C[C@@H]1CN([C@@H](C)CO)C(=O)c2cccc(NS(=O)(=O)c3ccc(F)cc3)c2O[C@@H]1CN(C)Cc1ccc(C(=O)Nc2ccccc2N)cc1 20 -70[16.7_µM]
C[C@H]1CCCCO[C@H](CN(C)S(=O)(=O)c2cccs2)[C@@H](C)CN([C@@H](C)CO)C(=O)c2cc(NC(=O)Cc3ccccc3)ccc2O1 10 -41[16.7_µM]
